# EPAC1 agonist – validation of human EPAC1 agonists; EPAC1 Rap1b BODIPY-GDP exchange, fluorescence; Potency, µM, without a hit: max response, positive = active, most hits filed as activators; 16,000 tested, 1% active; AID 1645883; active = well fitted activation curve with a large enough effect; inconclusive = small, poorly fitted or top-dose-only effect; inactive = no such curve, though single readings can be large or run the other way;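 note: nearly all actives have a fitted effect of over 70% in size; series mostly up to about 76 or 150 µM; scaled to a cAMP control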
# Target sequence (O95398 whole entry, looked up): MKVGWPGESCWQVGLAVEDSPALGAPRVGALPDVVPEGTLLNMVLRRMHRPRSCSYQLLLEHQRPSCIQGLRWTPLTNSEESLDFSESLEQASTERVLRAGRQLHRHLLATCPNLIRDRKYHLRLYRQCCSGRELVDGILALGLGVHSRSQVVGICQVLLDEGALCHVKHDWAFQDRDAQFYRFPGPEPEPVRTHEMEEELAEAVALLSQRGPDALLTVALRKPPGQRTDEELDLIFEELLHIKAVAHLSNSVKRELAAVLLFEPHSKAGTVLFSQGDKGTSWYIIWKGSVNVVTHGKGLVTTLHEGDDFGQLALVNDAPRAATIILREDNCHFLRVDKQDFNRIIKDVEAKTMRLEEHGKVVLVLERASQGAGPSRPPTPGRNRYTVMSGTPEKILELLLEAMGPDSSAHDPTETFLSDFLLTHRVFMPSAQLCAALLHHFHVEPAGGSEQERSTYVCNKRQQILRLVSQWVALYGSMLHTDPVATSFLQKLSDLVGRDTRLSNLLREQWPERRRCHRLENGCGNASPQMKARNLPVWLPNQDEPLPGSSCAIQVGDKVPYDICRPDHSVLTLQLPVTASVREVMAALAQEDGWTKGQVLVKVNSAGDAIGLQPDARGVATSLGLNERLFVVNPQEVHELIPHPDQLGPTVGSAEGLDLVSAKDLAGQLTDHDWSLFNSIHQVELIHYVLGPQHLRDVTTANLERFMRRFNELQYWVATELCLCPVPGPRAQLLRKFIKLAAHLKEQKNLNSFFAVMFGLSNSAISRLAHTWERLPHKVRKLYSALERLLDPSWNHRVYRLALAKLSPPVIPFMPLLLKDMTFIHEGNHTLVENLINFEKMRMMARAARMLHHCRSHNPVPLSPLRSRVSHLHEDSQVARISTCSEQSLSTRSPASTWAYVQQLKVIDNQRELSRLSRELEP
# Numbers without * were called inactive; ? = inconclusive; & = joins results of further samples; [ ] = dose if it differs, or a comment. % is set by controls: 0 for no effect and ±100 for the full control effect; potency is the fitted concentration of half-maximal effect.
SMILES,EPAC1 agonist
C=C1C[C@@]23CC[C@H]4[C@@](C)(CCC[C@@]4(C)C(=O)O)[C@@H]2CC[C@]1(O)C3,6%
CCNc1ncc2nc(-c3ccccc3)c(=O)n(CCOC)c2n1,-20%
CN(C)c1ccc(/C=C/C=C/c2ccnc3ccccc23)cc1,112µM*
Cc1c(C(=O)NCC2Cc3cccc(-c4cncnc4)c3O2)c(-c2ccccc2)nn1-c1ccccc1 (stereo not given),-3%
CC(=O)OC1c2c(ccc3ccc(=O)oc23)OC(C)(C)C1OC(=O)CC(C)C (stereo not given),-113%[inhibitor]
Cc1noc(C)c1-c1cncnc1NCc1ccccc1,-36%[inhibitor]
CCC(=O)O[C@@H]1CC(=O)O[C@H](C)C/C=C/C=C/[C@@H](O)[C@H](C)C[C@H](CC=O)[C@H](OC2O[C@H](C)[C@@H](O[C@H]3C[C@@](C)(O)[C@@H](OC(=O)CC)[C@H](C)O3)[C@H](N(C)C)[C@H]2O)[C@H]1OC (stereo not given in full),10%
C#CCCCCCCCCCCCC(O)CC(O)COC(C)=O (stereo not given),-12%
CC(C)=CCc1c(O)cc(O)c2c1O[C@H](c1ccccc1)CC2=O,?
COc1ccccc1-c1cncnc1Nc1ccccc1,-12%
OC(CCN1CCCC1)(c1ccccc1)C1CCCCC1 (stereo not given),17%&4%
CO/N=C(\C(=O)N[C@@H]1C(=O)N2C(C(=O)O)=C(CSc3nnnn3C)CS[C@H]12)c1csc(N)n1,-17%
Cn1c(=O)cnc2cnc(Oc3ccccc3)nc21,31%
Cc1ccccc1-c1cncnc1N1CCN(C)CC1,14%
COc1cc(=O)n2c(c1C(=O)NCc1ccsc1)CCN(Cc1nc3ccccc3[nH]1)CC2,12%
O=C(Oc1ccccc1)N1CCC[C@@]2(CCN(c3ccccc3)C2)C1,16%
Cc1ccccc1CN1CCc2nnc(C(C)NC(=O)c3cc(F)ccc3F)n2CC1 (stereo not given),-2%
CC(N)(C(=O)O)c1ccc(P(=O)(O)O)cc1 (stereo not given),-3%
CC(=O)N1CCC2(CC1)CN(c1ccccc1)C2,-36%[inhibitor]
COc1cccc(-c2cc(NCc3cccc(C)c3)ncn2)c1,?
CCc1nc2cc(C(=O)N3CCC[C@H]3C(=O)OC)cc(NC(=O)c3ccccc3OC)c2n1C,1%
COc1ccc2c(c1)OCC(Cc1ccc(OC)c(OC(C)=O)c1)C2=O (stereo not given),?
NC(=O)NCC(N)C(=O)O (stereo not given),?
CC(NC(=O)C1CCOCC1)c1nnc2n1CCN(Cc1ccc3ccccc3c1)CC2 (stereo not given),-19%
N=C(N)c1ccc2cc(OC(=O)c3ccc(N=C(N)N)cc3)ccc2c1,-2%&-20%
COc1ccccc1C1CN(Cc2cccc3c2OCO3)Cc2ccccc2O1 (stereo not given),6%
CCCCC[C@H](O)/C=C/[C@H]1C=CC(=O)[C@@H]1C/C=C\CCCC(=O)O,-1%
COc1ccc(CNc2ccnc(-c3ccccc3CN(C)C)n2)c(OC)c1,-4%
CSc1nnc(CNC(=O)c2cccc3ccccc23)n1-c1ccccc1C,-8%
CC(=O)OC1CCC2(C)C3CCC4(C)C(CC5CCCCC54C(C)=O)C3CC(=O)[C@@]2(O)C1 (stereo not given in full),4%
CN1CCN(C2=Nc3cc(Cl)ccc3Nc3ccccc32)CC1,-4%&-14%&-46%&8%&-48%
COc1ccccc1CCn1c(=O)c(-c2cccc(Cl)c2)nc2cncnc21,-32%
CS(=O)(=O)Nc1cccc(-c2ccc3ncnc(NCCN4CCOCC4)c3c2)c1,-12%
COc1ccc2c(c1)OC(C)(C)C(c1ccccc1)C2c1ccc(OCCN2CCCC2)cc1 (stereo not given),0%
CCN[C@@H]1C[C@H](N)[C@@H](OC2OC(CN)=CCC2N)[C@H](O)[C@H]1O[C@H]1OC[C@](C)(O)[C@H](NC)[C@H]1O (stereo not given in full),-1%
COc1cc(CN2CCC3(CCC(CNC(=O)c4ccco4)O3)CC2)cc(OC)c1 (stereo not given),1%
COc1ncc2nc(-c3ccc(F)cc3)c(=O)n(CCC#N)c2n1,19%
COc1cc(-c2c(OC)cccc2OC)cc2c1OCCN(C(=O)CCC(=O)c1ccc(F)cc1)C2,4%
CN1CCN(c2ncncc2-c2ccoc2)CC1,13%
O=C(c1ccco1)N1CCC2(CC1)CCN(c1ccc(-c3ccccc3)cc1)CC2,-23%

# Ordered by count of non-hydrogen atoms (lowest first): part of the list above
SMILES,EPAC1 agonist
CN1CCN(c2ncncc2-c2ccoc2)CC1,13%
COc1ccccc1CCn1c(=O)c(-c2cccc(Cl)c2)nc2cncnc21,-32%
CS(=O)(=O)Nc1cccc(-c2ccc3ncnc(NCCN4CCOCC4)c3c2)c1,-12%

# Other structures follow.
SMILES,EPAC1 agonist
CC(CN1CC(=O)NC(=O)C1)N1CC(=O)NC(=O)C1 (stereo not given),?
O=C1C(SCCO)=C(SCCO)C(=O)c2ccccc21,2%&12%
CN(Cc1ccco1)c1cc(-c2ccccc2Cl)ncn1,21%
CCN1C(=O)CC(CC(=O)N2CCCCC2c2nccs2)(c2ccccc2C)C1=O (stereo not given),-8%
CCOc1ccc(CN2CCOc3ccc(C(O)c4cccnc4)cc3C2)cc1 (stereo not given),-10%
CC(NN)c1ccccc1 (stereo not given),11%
CCCCCCC[n+]1ccc(/C=C/c2c(C)[nH]c3ccccc23)c2ccccc21,10%
Cc1ccc(C)c(CN2CCC3(CCC(CNC(=O)c4ccnn4C)O3)CC2)c1 (stereo not given),-9%
Cc1noc(C)c1C(=O)N1CCC[C@@]2(CCN(C(c3ccccc3)c3ccccc3)C2)C1,?
Cn1c(=O)c(CCc2ccccc2)nc2cnc(Nc3ccccc3)nc21,-11%
Cc1ccc(OC[C@H](O)[C@H](C)NC(C)C)c2c1CCC2,2%
CC1(C)S[C@@H]2[C@H](NC(=O)C(C(=O)Oc3ccc4c(c3)CCC4)c3ccccc3)C(=O)N2[C@H]1C(=O)O (stereo not given in full),-20%
CC(=O)[C@]1(O)CCC2C3CCC4=CC(=O)CC[C@@]4(C)C3CC[C@]21C (stereo not given in full),-84%[inhibitor]
O=C(c1csnn1)N1CCC2(CC1)CN(c1ccncc1)C2,-60%[inhibitor]
COc1ccc2cc(CNCc3nonc3C)c(N3CCCC(CO)C3)nc2c1 (stereo not given),15%
CO/N=C(\C(=O)N[C@@H]1C(=O)N2C(C(=O)O)=CCS[C@H]12)c1csc(N)n1,-7%
Cc1nc2cnc(Nc3ccccc3)nc2n(CCc2ccccc2)c1=O,14%
NC(=O)N1c2ccccc2CC(=O)c2ccccc21,-13%
C=CC1(C)CC(=O)C2(O)C(C)(O1)C(OC(C)=O)C(O)C1C(C)(C)CCC(O)C12C (stereo not given),2%
COc1ccc(CN2[C@@H](CC(=O)O)c3ccccc3S2(=O)=O)cc1,29%
C[N+]1(CC(=O)c2ccc(I)cc2)CCCc2ccccc21 (stereo not given),?
O=C(c1ccccc1)c1ccc(Cn2cc(-c3ccccc3)nn2)cc1,-17%
CS(=O)(=O)c1ccc([C@@H](O)[C@@H](CO)NC(=O)C(Cl)Cl)cc1,-65%[inhibitor]
COc1cc(=O)n2c(c1C(=O)N(C)Cc1cscn1)CCN(C(=O)c1ccc(C)c(C)c1)CC2,-16%
Cc1ccc(CN2[C@H]3CCCC[C@@H]3OCCS2(=O)=O)cc1,21%
Cc1nc2cc(NC(=O)[C@@H]3C[C@@H](Sc4ccccn4)CN3Cc3ccc4c(c3)OCCO4)ccc2s1,7%
N=c1ccn2c(n1)OCC1C2O[C@@H](O)[C@H]1O (stereo not given in full),-25%
CN1CCN(c2ncc3nc(-c4ccc(Cl)cc4)c(=O)n(C)c3n2)CC1,8%
CC(=O)NCCNc1nc(-c2cccc(C#N)c2)nc2ccccc12,-20%
Nc1nc2c(nc(Br)n2[C@@H]2O[C@H]3COP(=O)(O)O[C@H]3[C@@H]2O)c(=O)[nH]1,21%
COCCNC(=O)COc1ccc(OCCNC[C@H](O)COc2ccccc2)cc1,-10%
NC(=S)c1ccc[n+]([C@@H]2O[C@@H](COP(=O)([O-])OP(=O)(O)OC[C@H]3O[C@@H](n4cnc5c(N)ncnc54)[C@H](OP(=O)(O)O)[C@@H]3O)C(O)C2O)c1 (stereo not given in full),2%
O=S(=O)(O)CCCS(=O)(=O)O,-14%
COc1ccccc1CNc1ncnc2ccc(-c3cccc(NS(C)(=O)=O)c3)cc12,?
COCCn1c(=O)c(-c2ccc(Cl)cc2)nc2cnc(OC)nc21,2%
CCCCC[C@H](O)/C=C/C=C\CCCCCCCC(=O)O,-12%&3%
COc1cc(Cl)c(C)cc1N1C(=O)[C@@H]2C[C@H]1CN2Cc1ccccn1,4%
O=C(O)CCCCC1SCC2NC(=O)NC21 (stereo not given),-20%
CO/N=C(/C(=O)NC1C(=O)N2C(C(=O)O)=C(CSc3nc(=O)c(O)nn3C)CSC12)c1csc(N)n1 (stereo not given),-16%
NC(CO)C(=O)NNCc1ccc(O)c(O)c1O (stereo not given),?
c1cn(-c2ncnc3ccc(-c4ccoc4)cc23)cn1,-9%
O=C(c1csnn1)N1CCC[C@@]2(CCN(c3ccccc3)C2)C1,-36%[inhibitor]
CC(=O)Nc1nnc(S(N)(=O)=O)s1,?
Cc1nc2cnc(N3CCNCC3)nc2n(C2CC2)c1=O,-62%[inhibitor]
C[C@@H](CCCCC(=O)Nc1ccc(C(F)(F)F)cc1)NCCc1cnc[nH]1,3%
CCNc1ncc2nc(-c3cccs3)c(=O)n(CCC#N)c2n1,?
Cn1c(=O)c(-c2ccccc2)nc2cnc(N3CCOCC3)nc21,-17%
Cc1c(F)c(N2CCNC(C)C2)cc2c1c(=O)c(C(=O)O)cn2C1CC1 (stereo not given),0%
CCCCCCCCCC(=O)NC(CN1CCOCC1)[C@H](O)c1ccccc1 (stereo not given in full),13%
CC(=O)C[C@H]1c2cc(F)cc(F)c2S(=O)(=O)N1C1CCN(Cc2ccccc2)CC1,13%

# The list continues:
SMILES,EPAC1 agonist
Cn1c(=O)c(CCc2ccccc2)nc2cnc(OCc3ccccc3)nc21,-13%
CN1CCCN(C(=O)[C@@H]2C[C@@H](Sc3nc4ccccc4[nH]3)CN2Cc2ccc(OC(F)(F)F)cc2)CC1,-11%
CC(C)C(O)c1ccc2c(c1)CN(C(=O)c1ccccc1-n1cccn1)CCO2 (stereo not given),-2%
O=c1c(-c2ccc(F)cc2)nc2cnc(N3CCNCC3)nc2n1C1CC1,-9%
CC(C)NC[C@@H](O)COc1ccc(CC(N)=O)cc1,-14%
COC(=O)C1CCCCN1Cc1ccc2c(c1)CN(C1CCSCC1)CCO2 (stereo not given),1%
O=C1C2CC3CC1CC(O)(C3)C2,3%
COc1ccc(OC)c(C(O)CNC(=O)CN)c1 (stereo not given),7%&-22%
C[C@@H](O)[C@H]1C(=O)N2C(C(=O)[O-])=C(SC3Cn4cnc[n+]4C3)[C@H](C)[C@H]12 (stereo not given in full),-1%
COc1cccc(CNc2ncnc3sc(C(=O)N4CCOCC4)c(C)c23)c1OC,5%
COc1ccc(NC(=O)N2CCC3(CC2)CCN(C(=O)c2cccn2C)CC3)cc1,-65%[inhibitor]
CC(C)NC(=O)[C@@H]1C[C@@H](Sc2nc3ccccc3[nH]2)CN1C1Cc2ccccc2C1,27%
CC(=O)N1CCN(C(=O)c2sc3ncnc(NCC4CCCO4)c3c2C)CC1 (stereo not given),13%
Cc1nnc(SCC2=C(C(=O)O)N3C(=O)[C@@H](NC(=O)Cn4cnnn4)[C@H]3SC2)s1,-7%&26%
COCC(=O)Nc1cc(C(=O)N2CCc3c([nH]c4ccccc34)C2)cc2nc(-c3ccccc3)n(C)c12,1%
COc1c(C)c2c(c(O)c1CC=C(C)CCC(=O)OCCN1CCOCC1)C(=O)OC2,1%
CCOc1cccc(C(=O)c2ccc(O)c(O)c2O)c1,-40%[inhibitor]
C[C@@H]1C[C@@H](CC(=O)NCC2Cc3cccc(-c4ccncc4)c3O2)NC(=S)N1 (stereo not given in full),12%
COc1ccc(C(=O)N2CCC3(CC2)c2ccccc2[C@@H](NC(=O)c2ccccn2)[C@@H]3OC)c(O)c1,7%

# Of the compounds above, 13 contain a COOH group.
SMILES,EPAC1 agonist
C=C1C[C@@]23CC[C@H]4[C@@](C)(CCC[C@@]4(C)C(=O)O)[C@@H]2CC[C@]1(O)C3,6%
CO/N=C(\C(=O)N[C@@H]1C(=O)N2C(C(=O)O)=C(CSc3nnnn3C)CS[C@H]12)c1csc(N)n1,-17%
CC(N)(C(=O)O)c1ccc(P(=O)(O)O)cc1 (stereo not given),-3%
NC(=O)NCC(N)C(=O)O (stereo not given),?
CCCCC[C@H](O)/C=C/[C@H]1C=CC(=O)[C@@H]1C/C=C\CCCC(=O)O,-1%
CC1(C)S[C@@H]2[C@H](NC(=O)C(C(=O)Oc3ccc4c(c3)CCC4)c3ccccc3)C(=O)N2[C@H]1C(=O)O (stereo not given in full),-20%
CO/N=C(\C(=O)N[C@@H]1C(=O)N2C(C(=O)O)=CCS[C@H]12)c1csc(N)n1,-7%
COc1ccc(CN2[C@@H](CC(=O)O)c3ccccc3S2(=O)=O)cc1,29%
CCCCC[C@H](O)/C=C/C=C\CCCCCCCC(=O)O,-12%&3%
O=C(O)CCCCC1SCC2NC(=O)NC21 (stereo not given),-20%
CO/N=C(/C(=O)NC1C(=O)N2C(C(=O)O)=C(CSc3nc(=O)c(O)nn3C)CSC12)c1csc(N)n1 (stereo not given),-16%
Cc1c(F)c(N2CCNC(C)C2)cc2c1c(=O)c(C(=O)O)cn2C1CC1 (stereo not given),0%
Cc1nnc(SCC2=C(C(=O)O)N3C(=O)[C@@H](NC(=O)Cn4cnnn4)[C@H]3SC2)s1,-7%&26%

# Compound activity from PubChem.

# These rows are one share of the data. The share of hits here may be higher or lower than overall.
